miR-21 FLuc: miR-21 reporter, rising signal | HeLa miR-21 FLuc reporter, luciferase, 48 h | Potency, µM (highest dose often 38.3 µM), for the others: top-dose reporter change, positive = more light | 340,000 tested, under 10 active | AID 2288; active = well fitted rising curve with a large enough effect; inconclusive = small, poorly fitted or top-dose-only effect; inactive = no such curve, though single readings can be large or run the other way;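 note: % of control where 0% means no effect; miR-21 action dims this reporter so a rising signal means less miR-21 action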
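Using DMEM plus 10% FBS, HeLa miR-21-FLuc cells are incubated with test compounds (final up to about 40uM) for 48 hours; firefly luciferase signal is then imaged following reagent-mediated lysis.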
Rango dissoc inh: prevents RanGTP from dissociating the Rango-importin beta complex; O95149+P62826; Biochemical FRET Rango-importin beta, RanGTP-induced dissociation; Potency, µM (doses to about 46.1 µM), for the others: at the top dose activity change, negative = inhibition; hit rate 0.071% among 340,000; AID 540253; active means falling FRET ratio curve, often poorly fitted, with flat reads before Ran was added; inconclusive means other falling curves, or compound fluorescence or quenching; inactive means flat or rising ratio curve;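 note: potency is the fitted concentration of half-maximal effect; % of control where 0% means no effect; nearly all actives have a fitted effect of over 45% in size; -100% = wells without RanGTP and RCC1; the record marks most hits as doubtful in a second field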
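Compounds preincubate 5 min with complex of recombinant Rango and importin beta in PBS with 1 mM DTT. Ran (0.6 uM) loaded with 2 mM GTP plus 0.2 uM RCC1 starts dissociation; FRET is recorded 45 min later.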
Rango complex inh: inhibitors of Rango-importin beta complex formation. Q14974. Rango CFP/YFP FRET sensor + importin beta, 45 min. Potency, µM (highest dose often 92.2 µM), inactives show top-dose inhibition of complex formation. hit rate 0.031% among 340,000. AID 540263; active = rising FRET ratio curve, often small or poorly fitted; inconclusive = mostly compound fluorescence or quenching in the first reads; inactive = flat curves in all reads;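 note: potency is the fitted concentration of half-maximal effect; 0% = DMSO wells and 100% = buffer wells lacking importin beta; nearly all actives have a fitted effect of over 15% in size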
Target sequence (Q14974 whole entry, looked up): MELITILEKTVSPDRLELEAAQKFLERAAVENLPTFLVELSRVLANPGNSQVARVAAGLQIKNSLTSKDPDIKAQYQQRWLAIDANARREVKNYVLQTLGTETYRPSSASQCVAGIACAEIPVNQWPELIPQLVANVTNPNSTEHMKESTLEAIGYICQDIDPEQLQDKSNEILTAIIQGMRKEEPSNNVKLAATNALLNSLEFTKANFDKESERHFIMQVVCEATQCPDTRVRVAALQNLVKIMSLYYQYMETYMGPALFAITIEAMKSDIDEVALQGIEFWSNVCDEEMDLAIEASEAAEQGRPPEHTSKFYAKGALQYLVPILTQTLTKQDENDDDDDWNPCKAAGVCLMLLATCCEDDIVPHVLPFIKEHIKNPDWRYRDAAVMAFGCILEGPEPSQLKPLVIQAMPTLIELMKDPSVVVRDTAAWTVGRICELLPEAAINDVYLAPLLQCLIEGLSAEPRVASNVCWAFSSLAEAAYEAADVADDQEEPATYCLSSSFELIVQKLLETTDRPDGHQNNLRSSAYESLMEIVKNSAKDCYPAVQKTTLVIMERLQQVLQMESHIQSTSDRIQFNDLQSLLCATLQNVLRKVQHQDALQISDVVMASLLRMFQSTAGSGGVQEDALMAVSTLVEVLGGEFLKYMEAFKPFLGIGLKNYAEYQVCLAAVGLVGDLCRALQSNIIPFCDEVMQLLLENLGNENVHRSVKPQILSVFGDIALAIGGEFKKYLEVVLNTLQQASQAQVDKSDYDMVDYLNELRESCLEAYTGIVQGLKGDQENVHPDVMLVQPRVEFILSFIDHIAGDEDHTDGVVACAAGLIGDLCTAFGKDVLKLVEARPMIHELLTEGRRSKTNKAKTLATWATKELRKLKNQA
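FRET biosensor Rango (snurportin 1 IBB between N-terminal EYFP and C-terminal Cerulean), 50 nM in PBS/1 mM DTT/0.02% Tween-20/0.1% BSA, preincubated 5 min RT with compound; 0.125 microM importin beta added, 45 min RT, CFP/YFP FRET ratio read.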
GLA inh pH 4.5: blocks human alpha-galactosidase A at pH 4.5; purified enzyme, 4-MU-alpha-Gal fluorescence, pH 4.5; activity change, negative = inhibition, % at 105 µM; 230,000 tested, under 10 active; inconclusive = small, poorly fitted or top-dose-only inhibition, or a rising curve; inactive = flat fitted curve, though single readings scatter; no compound was filed as active;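 note: 0% = full activity with enzyme and -100% = basal without enzyme; dose as in the result columns while the protocol names 77 µM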
Starred values were filed as active, the others as inactive; ? = inconclusive; / = not tested or not shown.

A first look:
miR-21 FLuc	Rango dissoc inh	Rango complex inh	GLA inh pH 4.5	SMILES
0%	2%	0.2%	3	Cc1ccc(N(O)C(=O)OCCNC(=O)Nc2ccccc2)cc1
-17%	-8%	0.2%	8	CCCCCCc1nnc(NC(=O)OCC)s1
-59%	14%	3.6%	2	O=C(c1ccco1)N1CCN(c2ccc(Cl)cc2)CC1
7%	-2%	0.8%	/	COCc1c(C(=O)N2CCN(Cc3ccc(C#N)cc3)CC2)oc2ccccc12

This part in full, from the start:
miR-21 FLuc	Rango dissoc inh	Rango complex inh	GLA inh pH 4.5	SMILES
0%	2%	0.2%	3	Cc1ccc(N(O)C(=O)OCCNC(=O)Nc2ccccc2)cc1
-17%	-8%	0.2%	8	CCCCCCc1nnc(NC(=O)OCC)s1
-59%	14%	3.6%	2	O=C(c1ccco1)N1CCN(c2ccc(Cl)cc2)CC1
7%	-2%	0.8%	/	COCc1c(C(=O)N2CCN(Cc3ccc(C#N)cc3)CC2)oc2ccccc12
-1%	2%	-0.2%	/	CCN(CC)S(=O)(=O)c1ccc(C(=O)N2CCN(C3=NS(=O)(=O)c4ccccc43)CC2)cc1
-5%	15%	-6.9%	3	CCn1c(SCC(=O)Nc2nc(C)cs2)nnc1-c1ccco1
-37%	3%	3.0%	-5	CC(=O)Nc1ccccc1C(=O)C(=O)Nc1ccc(F)cc1
-12%	-9%	-0.3%	2	S=C(NCc1ccccc1Cl)Nc1ccccc1Cl
-4%	19%	-1.1%	-2	O=C(c1ccccc1)c1ccncc1
-50%	-11%	-0.4%	4	S=C(NCCc1ccccc1)NN=C1CCCCCC1
-15%	5%	-2.4%	-1	Cc1ccc(NC(=O)c2cccc(NC(=O)/C=C/c3ccco3)c2)cc1C
0%	-3%	?	-1	Cc1ccc(S(=O)(=O)N(C)C)cc1NC(=O)COC(=O)COc1ccccc1[N+](=O)[O-]
-5%	0%	-4.9%	5	COc1ccc(NCCNc2ccc(OC)cc2)cc1
-9%	-3%	0.9%	/	CCNC(=S)N(CCCO)Cc1cc2cc3c(cc2[nH]c1=O)OCCO3
/	-12%	5.1%	/	COCc1c(C(=O)OCC(=O)NCc2ccco2)oc2ccccc12
/	10%	-1.6%	/	Cc1ccc(NS(=O)(=O)c2cccc(C(=O)NC3CCN(Cc4ccccc4)CC3)c2)cc1
-16%	-4%	?	-8	COC(=O)c1c(NC(=O)c2nc3ccccc3s2)sc2c1CCN(C(C)=O)C2
-1%	2%	-1.7%	-11	NC(=O)C[C@@H]1NC(=O)CNC(=O)c2cc([N+](=O)[O-])cc(I)c2NCCC(C(N)=O)NC1=O (stereo not given in full)
1%	?	?	4	CCN(CC)CCN1C2=C(C(=O)CC(C)(C)C2)C(c2cccc(F)c2)C2=C1CC(C)(C)CC2=O
-2%	-6%	-0.2%	1	COc1ccc(N(C)S(=O)(=O)c2ccc(C)cc2)c([N+](=O)[O-])c1
3%	-14%	0.5%	6	Cc1nnc(SCc2cc(=O)oc3cc(O)ccc23)n1Cc1ccccc1
-57%	?	?	-1	NC(=O)c1ccccc1N/C=C/C(=O)c1ccco1
0%	3%	-3.1%	3	Cc1c(F)cccc1NC(=O)CSCC(=O)Nc1ccccc1
-15%	-20%	4.5%	2	Cc1ccsc1CN1CCN(c2ccccn2)CC1
0%	29%	-0.3%	0	CC(=O)c1cc(CN2CCN(CC=C(C)C)C(CCO)C2)cs1 (stereo not given)
-7%	4%	-0.1%	6	O=C(c1ccc(F)cc1)N1CCN(c2cc(=O)[nH]nc2-c2ccccc2)CC1
17%	-11%	-2.3%	0	O=C(Oc1nsnc1N1CCOCC1)N1CCOCC1
0%	-2%	?	-11	COc1ccc2[nH]c(=O)c(CN(C)C(=O)C3CCCCC3)cc2c1
4%	-13%	-0.6%	2	O=C(c1cccn(Cc2ccc(C(F)(F)F)cc2)c1=O)N1CCOCC1
/	1%	-4.8%	/	CN(C(=O)c1cccc(NC(=O)Cc2cccc([N+](=O)[O-])c2)c1)C1CC1
-7%	?	?	-4	CC(C)N1C(=O)S/C(=C/c2ccc(Sc3nc4ccccc4[nH]3)o2)C1=O
-3%	-6%	-1.1%	-3	CCCc1nc2ccccc2c(NC(=O)CN(CC)CC)c1CC
-10%	21%	-0.2%	/	CCc1ccc(OC(=O)c2cncc(Br)c2)cc1
1%	-8%	-0.5%	-11	COc1cccc(C2=NOC(C(=O)Nc3c(C)n(C)n(-c4ccccc4)c3=O)C2)c1 (stereo not given)
-1%	/	/	-2	O=C(Nc1ccc(Cl)cc1)[C@@H]1[C@@H]2C(=O)N(c3ccc(Cl)cc3Cl)C(=O)[C@@H]2[C@H]2C=CC=NN21
3%	1%	-2.8%	-4	CC(=O)NC1(C(=O)O)CCCC1
-1%	9%	0.1%	/	O=C(O)CCc1[nH]c2ccccc2c1Sc1ccccc1
1%	2%	-1.3%	-7	CC(Cl)C(=O)c1c(N)n(C)c(=O)n(C)c1=O (stereo not given)
/	-17%	-3.0%	/	Cc1ccc(S(=O)(=O)NCc2ccccc2)cc1C(=O)N(C)CC(=O)Nc1c(Cl)cccc1Cl
-2%	1%	-0.5%	/	Cc1cccc(NC(=O)Nc2c(C)n(C)n(-c3ccccc3)c2=O)c1
-2%	-1%	6.0%	0	CC(C)c1ccc(NS(=O)(=O)c2ccc3[nH]cc(C(=O)N4CCC(C(N)=O)CC4)c(=O)c3c2)cc1
-7%	11%	5.0%	3	Cc1ccc(C)c2[nH]c(=O)c(CCNC(=O)CC(C)(C)C)cc12
1%	/	/	-3	S=C(Nc1ccccc1)N1CCN(C(=S)Nc2ccccc2)CC1
/	-7%	-0.4%	/	O=C1COc2ccc(C(=O)COC(=O)c3ccccc3[N+](=O)[O-])cc2N1
0%	-14%	0.0%	0	CCCS(=O)(=O)Nc1c(C(=O)O)[nH]c2ccc(OC)cc12
-2%	0%	-5.3%	3	Cc1cc(C)c2nc(SCC#N)cc(C)c2c1
-4%	-5%	3.7%	1	Cc1cc(C)nc(N2CCC(C(=O)NCCc3ccccc3)CC2)n1
0%	5%	-3.7%	-1	CN(C)c1ccc(CN(C(=O)/C=C/c2ccco2)C2CCS(=O)(=O)C2)cc1 (stereo not given)
-38%	1%	-2.0%	3	Oc1ccc(C=Nc2ccccc2-c2nc3ccccc3[nH]2)cc1
2%	-14%	?	-11	Cc1noc(C)c1COC(=O)CCCc1c[nH]c2ccccc12
2%	-7%	-2.7%	-2	O=C1c2ccc(-c3ccc4c(c3)C(=O)N(CCCO)C4=O)cc2C(=O)N1CCCO
-14%	23%	3.0%	-1	Cc1ccc(NC(=O)c2cncc(Br)c2)c(O)c1
-3%	-5%	-0.5%	1	O=C(c1ccccc1)N1CCN(C2CCCCC2)CC1
0%	-4%	7.5%	/	CCn1c(SCC(=O)Nc2cc(C)on2)nnc1-c1cccc(C)c1
/	2%	0.7%	/	CCOc1ccc(S(=O)(=O)N2CCN(C(=O)C3CC3C)CC2)cc1 (stereo not given)
6%	-6%	0.1%	-3	COc1ccccc1N1CCN(C(=O)c2ccccc2Oc2ccccc2)CC1
/	-15%	5.8%	/	O=C(CNC(=O)c1cccc([N+](=O)[O-])c1)NC1CCCc2ccccc21 (stereo not given)
/	3%	0.1%	/	CCOc1ccccc1C(=O)NCC(=O)Nc1ccc2c(c1)OCO2
-5%	1%	-0.2%	-2	Cc1occc1-c1nnc(SCC(=O)N2CCCc3ccccc32)n1Cc1ccco1
-5%	11%	-0.1%	-1	O=C(Nc1ccc(F)cc1)N1CCOCC1

Overlap with the part before: two compounds; new compounds follow.
miR-21 FLuc	Rango dissoc inh	Rango complex inh	GLA inh pH 4.5	SMILES
-5%	1%	-0.2%	-2	Cc1occc1-c1nnc(SCC(=O)N2CCCc3ccccc32)n1Cc1ccco1
-5%	11%	-0.1%	-1	O=C(Nc1ccc(F)cc1)N1CCOCC1
1%	0%	-0.2%	1	COc1ccc(OC)c(-n2c(-c3ccc(O)cc3O)n[nH]c2=S)c1
-1%	-22%	3.2%	-4	CCN(CC)S(=O)(=O)c1ccc(NC(=O)c2cccs2)cc1
4%	2%	1.7%	/	Cc1ccc(S(=O)(=O)NC(CC(C)C)C(=O)N2CCOCCOCCOCC2)cc1 (stereo not given)
7%	-13%	-3.9%	/	CC(CCc1ccccc1)NCc1cccc2ccccc12 (stereo not given)
-3%	0%	1.1%	5	COC(=O)C(C)(C(=O)OC)c1ccc(C(F)(F)F)cc1[N+](=O)[O-]
1%	29%	3.7%	/	O=C(Nc1ccc(F)cc1F)c1cccc(C(=O)Nc2ccc(F)cc2F)n1
-52%	-4%	3.1%	/	COc1cccc(NC(=O)CC(=O)c2ccccc2)c1
-8%	-11%	1.7%	-10	CC(=O)c1c(C)[nH]c(C(=O)OCc2c(F)cccc2Cl)c1C
0%	1%	-0.4%	5	Cn1cc(S(=O)(=O)N2CCN(C(=O)c3ccco3)CC2)c(=O)n(C)c1=O
8%	-4%	-1.6%	-13	Cc1csc(NC(=O)C2CCCN(S(=O)(=O)c3ccc4c(c3)oc(=O)n4C)C2)n1 (stereo not given)
6%	-11%	-0.1%	/	Cc1cc(OC(C)C(=O)NCc2ccncc2)c2c(C)c(C)c(=O)oc2c1 (stereo not given)
-55%	?	?	4	CC(C)OC(=O)c1sc2nc(-c3ccccc3)ccc2c1N
-3%	17%	0.1%	4	COc1cc(C(=O)Nc2nc(-c3cc(C)ccc3C)c(C)s2)ccc1OCC(=O)Nc1ccc(F)cc1
0%	0%	-0.1%	14	COc1ccccc1NC(=O)CN(Cc1ccco1)C(=O)c1ccc(Cl)nc1
0%	3%	0.3%	9	CSc1nsc(SC)c1C(=O)O
-13%	18%	-2.6%	1	C#CCSc1nc2ccccc2n1C(=O)c1ccc(S(=O)(=O)N2CCCCC2)cc1
3%	-6%	3.0%	0	Cc1cc(C)nc(CC(N)=O)n1
6%	-1%	1.1%	8	Cc1ccc(O)c(C(CC(=O)NCc2cccnc2)c2ccccc2)c1 (stereo not given)
-4%	-11%	-2.8%	-3	COCc1cc(C)nc(OCC(=O)N/N=C/c2ccc(C)cc2)c1C#N
-2%	14%	4.4%	/	Cc1ccc(C)c(N2CCN(C(=O)Cn3ncc4c([nH]c5ccc(C)cc54)c3=O)CC2)c1
-21%	?	?	5	COc1cc2c(C#N)c(N3CCCCC3)nc(N)c2c(N)n1
-3%	0%	-4.6%	/	COC(=O)c1ccc(CNC(=O)CSc2nc3ccccc3[nH]2)cc1
-10%	-2%	-2.5%	/	Cc1cccc(C(=O)Nc2nnc(S(=O)(=O)N3CCCCCC3)s2)c1
-4%	-1%	3.6%	-14	O=C(COC(=O)c1cc(NS(=O)(=O)c2cccs2)ccc1O)Nc1cc(Cl)ccc1Cl
5%	-9%	-0.1%	4	CCC(=O)Oc1ccc(C(=O)Nc2c[nH]c(=O)[nH]c2=O)cc1
-3%	0%	-0.4%	1	Cc1cc(C)n(-c2nc(C)nc3sc4c(c23)CCC(C)C4)n1 (stereo not given)
4%	/	/	9	O=C(O)c1cccc(N2C(=O)CCC2=O)c1
-3%	-1%	0.5%	/	COc1ccccc1-c1noc(CCC(=O)NC2CCCCC2)n1
-2%	-6%	-0.5%	-4	O=C1c2ccccc2C(=O)N1Cc1ccc2c(c1)OCO2
-16%	-3%	1.7%	-5	CC1(C)Cc2c(c(-c3ccccc3)[nH]c(=O)c2C#N)CO1
/	-4%	2.3%	/	C[C@@H](OC(=O)c1[nH]cnc1C(=O)NCc1ccc(CNC(=O)OC(C)(C)C)cc1)c1ccccc1
-6%	0%	1.5%	2	COc1cccc(-n2c(SCC(=O)Nc3sc4c(c3C(N)=O)CCC4)nc3ccccc3c2=O)c1

From PubChem

Some of the compounds tested; count on the stated rates, not on these rows.
